Compound activity: PubChem, several laboratories
WT yeast gro inh: growth inhibition of WT yeast, mitochondrial fusion screen. mitochondrial fusion phenotypic screen, WT strain. inhibition, % at 10 µM. 2.1% of 190,000 active; in the data active means inhibition above about 58%; tested in S. cerevisiae
Autophagy HCS: modulators of autophagy. MEF GFP-LC3 puncta imaging; test concentration mostly 10 µM. calls only at 10 µM (by protocol). 0.98% of 190,000 active. AID 463193;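 active means percentage of spot-positive cells more than 3 SD above its plate mean, without a fluorescence outlier flag or 80% toxicity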;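 further: spot-positive cell cutoff set from DMSO-treated cells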
Ins promoter up: MIN6 insulin promoter up-regulation. MIN6 insulin promoter-GFP reporter, high-content imaging; active compounds read high. z-score at 5 µM. 0.3% of 190,000 active. AID 1625;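 active means z-score above 3 at 5 µM with at least 500 cells counted in the well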
Yfh1-off respiration: enhancers of respiration in Yfh1-depleted yeast, dose response, Friedreich's ataxia, plus single-dose screen (AID 1465). fold induction at 50 µM, or EC50 in µM where a hit was titrated. 0.074% of 220,000 active. S. cerevisiae Yfh1-off respiration, WST-1 reduction, 72 h; higher fold induction means a stronger effect;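 active means fold induction of absorbance versus untreated yeast above a set limit, then at least 30% activation at any dose in follow-up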;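 further: activators that raise dye reduction in frataxin-depleted yeast; strong numbers were not always called active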
Dynein cargo inh: blocks dynein driven cargo transport along microtubules | 3617.4 mouse cells, GR-EGFP nuclear translocation imaging; test concentration mostly 20 µM; stimulated with dexamethasone, 1 µM; active compounds read low | z-score, hits read low | 0.47% of 220,000 active | AID 1381;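 active means plate z-score of nuclear minus cytoplasmic receptor signal below a set negative limit, without overly bright fluorescence or cell loss, cut at about -3.5 in these data, passing the limit was not always enough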;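 further: z-score of nuclear minus cytoplasmic ring GR-EGFP intensity difference per well; some compounds called inactive have numbers as strong as hits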
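medium = tetracycline-free induction medium containing charcoal-stripped FBS | probe or stimulus = dexamethasone, 1.0 µM final | timing = 48 h induction, then 1 h compound, then 30 min agonist, 37 °C | detection = automated 10x imaging of fixed Hoechst-stained cells | read-out basis = nuclear versus cytoplasmic GR-EGFP signal, averaged per well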
MT stabilize HCS: stabilizes microtubules in HeLa cells; 0.83% of 200,000 active; HeLa tubulin immunostaining HCS, 24 h; share of cells brighter than vehicle mean+2SD; AID 2205; % tubulin-high responders, % at 10 µM;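 active means plate Z-score above 3 for both tubulin-high and condensed-nucleus cell shares, with cell loss under 80%, at 10 µM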;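 further: anti alpha tubulin signal scored within the nucleus-defined area of each cell; some results filed as inactive read as strong as hits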
WT yeast gro inh mutant strain: second read-out of WT yeast gro inh, no call of its own (marks repeat the call); inhibition, %; mitochondrial fusion phenotypic screen, mutant strain inhibition
Dynein cargo inh cytoplasmic EGFP: second read-out of Dynein cargo inh, no call of its own (marks repeat the call); z-score; measured here: cytoplasmic GR-EGFP intensity; active compounds read high
Dynein cargo inh nuclear GR-EGFP: also measured in Dynein cargo inh; calls as there; z-score; measured here: nuclear GR-EGFP intensity;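 lower value marks the stronger effect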
Dynein cargo inh cell count: also measured in Dynein cargo inh; calls as there; z-score; measured here: cell count per field
Ins promoter up cell count: also measured in Ins promoter up; calls as there; cell count; measured here: cytotoxicity, nuclei count;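 total cells summed across four imaged fields per well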
MT stabilize HCS Hoechst-high %: further read-out of MT stabilize HCS, marked with its call; % Hoechst-high responders; measured here: nuclear condensation Hoechst responders;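 share of cells brighter than vehicle mean plus two SD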
MT stabilize HCS cytotoxicity %: second read-out of MT stabilize HCS, no call of its own (marks repeat the call); toxicity, %; measured here: cytotoxicity by cell density;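 0% = mean cell density of plate MIN control wells and 100% = no cells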
Autophagy HCS cell loss 18 h: further read-out of Autophagy HCS, marked with its call; toxicity, %; measured here: cell loss, nuclei count;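 cell loss after 18 h compound exposure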
Numbers without * were called inactive; i = inactive; . = not tested or not shown; + = active, no number. Some of the compounds tested; count on the stated rates, not on these rows.

SMILES	WT yeast gro inh	WT yeast gro inh mutant strain	Autophagy HCS	Autophagy HCS cell loss 18 h	Ins promoter up	Yfh1-off respiration	Dynein cargo inh	Dynein cargo inh cytoplasmic EGFP	Dynein cargo inh nuclear GR-EGFP	Dynein cargo inh cell count	MT stabilize HCS	MT stabilize HCS Hoechst-high %	MT stabilize HCS cytotoxicity %	others
Cc1ccccc1CS(=O)(=O)Cc1ccc(C(=O)NCCCN2CCOCC2)o1	16.7	19.8	i	2.2	-0.19	.	-1.35	-0.241	-0.443	1.34	2.6	1.2	75.9	Ins promoter up cell count=1356
CCCc1cc(C(N)=O)c(NC(C)=O)s1	-24.3	-25.9	i	-0.3	0.09	i	0.0939	-0.277	0.162	-0.613	2.2	0.4	34.5	Ins promoter up cell count=1243
CC1C(=NO)C(C)C(c2ccc(N(C)C)cc2)NC1c1ccc(N(C)C)cc1 (stereo not drawn)	23.6	20.1	i	-12.2	.	.	-0.352	0.393	0.203	-0.305	4.6	3.0	7.5
CCCCn1c(SCC(N)=O)nc2ccc(N3CCOCC3)cc2c1=O	12.0	9.6	i	-11.8	.	i	-0.421	-0.226	-0.33	0.527	2.7	2.7	5.9
CC(=O)NS(=O)(=O)c1ccc(NC(=S)NC(=O)c2ccco2)cc1	-7.2	-25.7	i	-32.4	.	i	0.25	-0.197	0.411	0.464	1.5	1.3	11.0
CCOC(=O)c1cc2c(=O)n3cccc(C)c3nc2n(Cc2ccco2)c1=NC(=O)c1cccnc1	18.6	13.8	i	6.4	-0.05	i	-0.141	-0.0674	-0.681	-0.398	3.0	2.1	8.4	Ins promoter up cell count=1111
Clc1ccc(-c2noc(CN3CCN(c4ccccc4)CC3)n2)cc1	18.0	14.2	i	6.3	.	i	-0.897	-0.17	-0.566	0.34	3.0	1.3	2.6
CCOc1ccc(-c2nnc3ccc(SC)nn23)cc1	-13.7	-19.7	i	21.6	.	i	-0.784	-0.2	-0.175	0.63	3.7	1.5	3.2
Cc1cc(=O)oc(C)c1C(=O)OCC(=O)c1ccc(Cl)cc1	0.8	22.2	i	-2.1	-0.67	i	-1.45	-0.21	-0.617	0.0405	2.2	1.5	2.7	Ins promoter up cell count=1294
C=CCn1ncc(OC)c(Cl)c1=O	2.5	23.4	i	-0.8	.	i	1.54	-0.063	0.656	-2.05	1.5	1.5	2.2
Nc1n[nH]c(-c2ccc(Br)cc2)c1Cl	7.0	8.3	i	-18.5	.	i	-0.513	-0.215	-0.205	0.279	16.3	6.5	12.3
COc1cc(C2C(C#N)=C(N)Oc3cc(O)ccc32)cc(OC)c1OC (stereo not drawn)	-11.2	1.0	+	70.9*	.	i	-0.837	-0.239	-0.409	-0.0283	21.4*	27.5*	47.2*
O=C(NNc1cccc(Cl)n1)Nc1ccc(Cl)cc1	2.3	-4.4	i	-0.6	.	i	-0.57	-0.207	-0.852	-0.086	2.1	2.2	4.1
CC(=O)NNc1nc2ccccc2s1	12.9	6.6	i	-26.6	.	i	0.596	-0.188	0.577	-0.061	0.3	3.5	10.0
Cc1cccc(OCCCCCn2ccnc2)c1	11.8	18.4	i	-17.2	.	i	0.0447	-0.341	0.0732	0.235	5.5	3.7	3.2
Cc1ccc(S(=O)(=O)N/N=C\c2ccccc2OCc2ccccc2)cc1	-25.3	-22.2	i	-25.4	.	i	0.417	-0.185	0.503	0.177	24.8*	29.4*	28.2*
CCn1c(SCc2c(Cl)cccc2Cl)nnc1-c1nn(-c2ccccc2)ccc1=O	14.4	7.4	i	-28.2	.	.	-0.0992	-0.105	-0.633	-0.261	2.2	2.0	8.9
C[C@H](NC(=O)Cn1cncn1)c1ccccc1	-4.3	-8.6	i	17.3	.	i	-1.29	-0.193	-1.01	0.477	2.5	2.2	5.2
O=C(NCCN1CCOCC1)c1ccc(Cl)cc1[N+](=O)[O-]	24.6	7.5	i	-29.1	.	i	0.377	-0.222	0.477	0.364	1.5	1.5	7.3
Cn1cc([N+](=O)[O-])c(C(=O)Nc2ccc(Br)cn2)n1	23.3	6.8	i	33.2	.	i	-2.78	-0.103	-1.45	1.69	6.9	3.1	0.8

Reprinted at random: 7 compounds from above.
SMILES	WT yeast gro inh	WT yeast gro inh mutant strain	Autophagy HCS	Autophagy HCS cell loss 18 h	Ins promoter up	Yfh1-off respiration	Dynein cargo inh	Dynein cargo inh cytoplasmic EGFP	Dynein cargo inh nuclear GR-EGFP	Dynein cargo inh cell count	MT stabilize HCS	MT stabilize HCS Hoechst-high %	MT stabilize HCS cytotoxicity %	others
Cc1cc(=O)oc(C)c1C(=O)OCC(=O)c1ccc(Cl)cc1	0.8	22.2	i	-2.1	-0.67	i	-1.45	-0.21	-0.617	0.0405	2.2	1.5	2.7	Ins promoter up cell count=1294
COc1cc(C2C(C#N)=C(N)Oc3cc(O)ccc32)cc(OC)c1OC (stereo not drawn)	-11.2	1.0	+	70.9*	.	i	-0.837	-0.239	-0.409	-0.0283	21.4*	27.5*	47.2*
CC(=O)NS(=O)(=O)c1ccc(NC(=S)NC(=O)c2ccco2)cc1	-7.2	-25.7	i	-32.4	.	i	0.25	-0.197	0.411	0.464	1.5	1.3	11.0
Clc1ccc(-c2noc(CN3CCN(c4ccccc4)CC3)n2)cc1	18.0	14.2	i	6.3	.	i	-0.897	-0.17	-0.566	0.34	3.0	1.3	2.6
CC(=O)NNc1nc2ccccc2s1	12.9	6.6	i	-26.6	.	i	0.596	-0.188	0.577	-0.061	0.3	3.5	10.0
CCOC(=O)c1cc2c(=O)n3cccc(C)c3nc2n(Cc2ccco2)c1=NC(=O)c1cccnc1	18.6	13.8	i	6.4	-0.05	i	-0.141	-0.0674	-0.681	-0.398	3.0	2.1	8.4	Ins promoter up cell count=1111
C[C@H](NC(=O)Cn1cncn1)c1ccccc1	-4.3	-8.6	i	17.3	.	i	-1.29	-0.193	-1.01	0.477	2.5	2.2	5.2

(further entries)
SMILES	WT yeast gro inh	WT yeast gro inh mutant strain	Autophagy HCS	Autophagy HCS cell loss 18 h	Ins promoter up	Yfh1-off respiration	Dynein cargo inh	Dynein cargo inh cytoplasmic EGFP	Dynein cargo inh nuclear GR-EGFP	Dynein cargo inh cell count	MT stabilize HCS	MT stabilize HCS Hoechst-high %	MT stabilize HCS cytotoxicity %	others
CC1(C)CN(c2ccccc2)N(C(=O)c2ccc(F)cc2)C1=O	3.2	7.3	i	5.1	.	i	-0.851	-0.176	-0.685	0.726	1.2	1.6	1.0
COc1cccc(-n2c(C)n[nH]c2=O)c1	-17.1	-3.6	i	17.4	.	i	-0.455	-0.188	-0.417	0.0766	2.0	2.0	6.6
Cc1ccc(NC(=O)c2ccc(CSc3nnc(C)s3)cc2)cc1	-65.4	-8.6	i	-24.2	.	i	1.43	-0.254	-0.205	-0.299	2.2	1.9	3.6
CCc1cc(=O)oc2cc(OCC(=O)N3CCCc4ccccc43)ccc12	-25.4	-26.0	i	-7.2	.	i	-0.207	-0.221	-0.115	0.994	1.3	1.3	2.4
Nc1ccc(Cc2ccc(N)c(C(=O)O)c2)cc1C(=O)O	9.0	23.6	i	-11.1	0.03	i	-0.159	-0.0772	0.577	-0.271	2.2	1.4	1.7	Ins promoter up cell count=934
CCc1cccc2c(C=C(C#N)C#N)cn(CC(=O)N3CCCCCC3)c12	-0.5	-8.7	i	-6.4	.	i	-0.235	0.0634	-0.378	-0.168	1.7	1.7	3.9
COc1ccc(C(=O)NC(=S)Nc2cccc(Cl)c2N2CCOCC2)cc1[N+](=O)[O-]	-26.0	-3.5	i	-17.3	-1.35	i	0.144	-0.202	0.55	1.01	7.8	4.4	6.6	Ins promoter up cell count=1062
CC(=O)Nc1ccnc(-c2cccnc2)n1	9.7	6.6	i	-2.3	.	i	-0.71	-0.207	-0.622	0.327	1.0	1.0	9.1
Cc1cccc(CSc2nnc(NC(=O)c3ccco3)s2)c1	4.7	25.4	i	3.3	.	i	-0.481	-0.217	-0.914	0.0141	2.7	1.7	0.8
CCOC(=O)Cc1nnc(NC(=O)CSc2ccc(C)cc2)s1	14.5	-2.0	i	-26.0	.	i	-0.208	-0.162	-0.22	-0.836	3.0	1.6	4.0
CC(C)OCC(O)CN1CCNCC1 (stereo not drawn)	29.1	5.0	i	24.7	.	i	-0.333	1.87	-0.24	0.189	2.6	1.6	4.3
COc1ccc(C(=O)Nc2ccc(NC(=O)c3cnccn3)cn2)cc1	3.4	-5.9	i	-26.4	.	i	-0.226	-0.0994	0.103	0.333	3.2	2.5	9.6
COc1ccc(C2(C)NC(=O)N(CC(=O)Nc3ccc4c(c3)OCO4)C2=O)cc1OC (stereo not drawn)	-3.3	-48.1	i	-0.4	.	i	-0.0882	-0.0596	-0.482	-0.553	2.6	1.8	5.0
COc1ccc(S(=O)(=O)N2CCCN(CC(=O)C(C)(C)C)CC2)cc1	2.2	-17.7	i	-9.5	.	.	-0.586	-0.176	-0.238	0.355	2.4	2.0	0.9

Ordered by heavy-atom count (smallest number first): part of the list above
SMILES	WT yeast gro inh	WT yeast gro inh mutant strain	Autophagy HCS	Autophagy HCS cell loss 18 h	Ins promoter up	Yfh1-off respiration	Dynein cargo inh	Dynein cargo inh cytoplasmic EGFP	Dynein cargo inh nuclear GR-EGFP	Dynein cargo inh cell count	MT stabilize HCS	MT stabilize HCS Hoechst-high %	MT stabilize HCS cytotoxicity %	others
Cc1ccc(NC(=O)c2ccc(CSc3nnc(C)s3)cc2)cc1	-65.4	-8.6	i	-24.2	.	i	1.43	-0.254	-0.205	-0.299	2.2	1.9	3.6
CCCCn1c(SCC(N)=O)nc2ccc(N3CCOCC3)cc2c1=O	12.0	9.6	i	-11.8	.	i	-0.421	-0.226	-0.33	0.527	2.7	2.7	5.9
CCc1cc(=O)oc2cc(OCC(=O)N3CCCc4ccccc43)ccc12	-25.4	-26.0	i	-7.2	.	i	-0.207	-0.221	-0.115	0.994	1.3	1.3	2.4
